Six1-Eya2 inh = qHTS Assay for Inhibitors of the Six1/Eya2 Interaction. activity change, % (test concentration not listed). 360,000 compounds, 0.56% hits. AlphaScreen GST-Six1/His-Eya2 binding, biochemical; active compounds read low; control for the full effect not named in the record; in the data active = activity change below about -65%; inconclusive = about -30% to -65%; inactive = above about -30%; further: on the % scale 0 is the no-effect control and ±100 the full control effect
Target sequence (O00167 whole entry, looked up): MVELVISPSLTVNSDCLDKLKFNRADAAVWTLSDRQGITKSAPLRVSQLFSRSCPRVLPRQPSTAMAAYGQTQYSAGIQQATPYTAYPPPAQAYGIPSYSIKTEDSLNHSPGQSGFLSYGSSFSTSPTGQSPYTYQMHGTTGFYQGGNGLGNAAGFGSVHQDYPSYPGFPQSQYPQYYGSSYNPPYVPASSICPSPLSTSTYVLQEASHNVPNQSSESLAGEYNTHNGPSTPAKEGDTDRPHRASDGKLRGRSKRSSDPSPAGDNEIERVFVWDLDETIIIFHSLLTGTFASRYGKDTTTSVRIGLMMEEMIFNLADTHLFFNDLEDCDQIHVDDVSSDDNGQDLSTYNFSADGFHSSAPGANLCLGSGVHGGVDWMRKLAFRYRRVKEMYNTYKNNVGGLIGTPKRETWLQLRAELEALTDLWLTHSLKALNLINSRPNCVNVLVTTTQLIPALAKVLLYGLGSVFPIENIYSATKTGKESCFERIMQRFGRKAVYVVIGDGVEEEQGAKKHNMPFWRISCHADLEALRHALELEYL
Target sequence (Q15475 whole entry, looked up): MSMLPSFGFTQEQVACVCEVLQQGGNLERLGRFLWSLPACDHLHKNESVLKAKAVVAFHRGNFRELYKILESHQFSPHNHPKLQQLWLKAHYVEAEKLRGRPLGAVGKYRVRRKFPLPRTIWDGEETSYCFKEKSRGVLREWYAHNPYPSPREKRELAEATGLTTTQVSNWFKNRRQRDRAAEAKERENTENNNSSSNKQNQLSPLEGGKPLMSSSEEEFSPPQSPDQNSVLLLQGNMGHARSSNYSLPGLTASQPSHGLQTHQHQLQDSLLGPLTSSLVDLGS
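AlphaScreen luminescence read after one hour at 37 °C in darkness. Pin-transferred compounds met GST-Six1 and His-Eya2 protein (5X stock 250 nM/500 nM) plus glutathione donor and Ni-chelate acceptor beads (5X, 50 ug/mL).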
CtBP-E1A blk = qHTS Assay for Inhibitors of the CtBP/E1A Interaction; activity change, % (no concentration beside the values); AID 651724, 2012; AlphaScreen GST-E1A/His-CtBP binding, 1536-well; active compounds read low; control for the full effect not named in the record; CtBP / adenovirus E1A interaction (AlphaScreen); 340,000 compounds, 0.49% hits; in the data active means activity change below about -65%; inconclusive means about -30% to -65%; inactive means above about -30%; further: on the % scale 0 is the no-effect control and ±100 the full control effect
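In 5 uL wells, 23 nL compound meets equimolar GST-E1A and His-CtBP (5X stock 125 nM each) for 2 h, 37 °C. Beads (5X, 50 ug/mL) then 1 h, 37 °C, dark.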
gsp antag = qHTS for Antagonists of gsp, the Etiologic Mutation Responsible for Fibrous Dysplasia/McCune-Albright Syndrome: qHTS; Potency, µM (doses to about 76.9 µM), for inactives: at the highest dose activity change, negative = inhibition, actives largely listed as inhibitors; AID 624288, 2012; gsp-mutant cells, cAMP HTRF, 30 min; control for the full effect not named in the record; 340,000 compounds, 0.4% hits; active = falling curve of any shape with a large fitted effect; inconclusive = falling curve, mostly with a smaller effect; inactive = flat or rising curve; cell line not stated here;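 further: intracellular cAMP measured with PDE inhibitor Ro 20-1724 present during compound exposure; potency means the concentration at half of the fitted maximal effect; on the % scale 0 is the no-effect control and ±100 the full control effect; nearly all actives have a fitted effect of over 65% in size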
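Cells, 2000/well, grown 16–24 h in DMEM 10% FBS with 0.5 mg/ml G418, then compounds plus […] (300 uM addition stock), 30 min at 37C. cAMP read by HTRF (cAMP-d2 and anti-cAMP antibody-K in lysis buffer) after 30 min RT.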
D2 agonist = Beta-Arrestin HTS for Positive Allosteric Modulators of the Human D2 Dopamine Receptor: Agonists. activation, % (concentration not given with the values). DiscoveRx PathHunter D2 beta-arrestin, luminescence, 90 min; 100% = 57 uM dopamine signal. D(2) dopamine receptor (Homo sapiens), P14416. 360,000 compounds, 0.084% hits; in the data active = activation above about 40%; inconclusive = about 15% to 40%; inactive = below about 15%; further: the text of the record calls up to 30% inactive
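DiscoveRx PathHunter D2 beta-arrestin cells (2,100/well) attached overnight, then compound-stimulated 90 min at 37 C in HBSS/10 mM HEPES/0.1% Tween-20 buffer; beta-galactosidase complementation read by luminescence after 1 h at ambient temperature. Dopamine 57 uM final (EC100) as control.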
D2 PAM = Beta-Arrestin HTS for Positive Allosteric Modulators of the Human D2 Dopamine Receptor: Potentiators | D(2) dopamine receptor (Homo sapiens), P14416 | DiscoveRx D2 beta-arrestin cells, luminescence, 90 min; 100% = 57 uM dopamine signal | potentiation, % (test concentration not listed) | 360,000 compounds, 0.23% hits | AID 624464, 2012; active = potentiation of 50% or more; inconclusive = 30% to 50%; inactive = 30% or less;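 further: compound concentration not given in the record; tested on top of an EC20 dose of dopamine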
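PathHunter D2 cells, attached overnight at 37 deg C, received compound in DMSO plus dopamine at EC20 (50 nM final) for 90 min at 37 deg C. Beta-arrestin recruitment was read as luminescence after 1 h with detection reagent at ambient temperature.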
gsp agonist = qHTS for Agonist of gsp, the Etiologic Mutation Responsible for Fibrous Dysplasia/McCune-Albright Syndrome: qHTS. gsp mutant cells, cAMP HTRF, 30 min; control for the full effect not named in the record. 340,000 compounds, 0.13% hits. AID 624287, 2012. Potency, µM (highest dose often 76.9 µM), for inactives: at the highest dose activation (cAMP increase), usual class: activators; active = well fitted activation curve with a large enough effect; inconclusive = small, poorly fitted or top-dose-only effect, or another doubt; inactive = no such curve, though single readings can be large or run the other way; cell line not stated here;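 further: phosphodiesterase inhibitor Ro 20-1724 added with compounds to block cAMP breakdown; potency means the concentration at half of the fitted maximal effect; nearly all actives have a fitted effect of over 60% in size; about a fifth of the inactives were tested at one dose only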
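Cells in DMEM/10% FBS with G418 were pretreated with compounds in DMSO plus […] (300 uM stock) for 30 min at 37C. cAMP was measured by HTRF (cAMP-d2 plus anti-cAMP antibody-K) after 30 min at room temperature.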
An asterisk follows results filed as active; ? = inconclusive; / = not tested or not shown; [ ] = another dose, or the depositor's remark.

Values in the order: Six1-Eya2 inh | CtBP-E1A blk | gsp antag | D2 agonist | D2 PAM | gsp agonist
Cc1noc(C)c1CSCC(=O)N(C)CC(=O)Nc1ccccc1Br
    -3.3 | 1.7 | 1.6% | -6.8 | -11.4 | -1.0%[15.4 µM]
CCOC(=O)[C@H]1[C@H]2COc3ccc(C)cc3[C@@H]2N2C(=O)[C@@H](C)NC(=O)[C@@]12C
    4.4 | 4.9 | -0.3% | 0.5 | 2.7 | -34.1%[inhibitor]
CC(NC(=O)CNC(=O)c1sc2ccccc2c1Cl)c1ccc(S(N)(=O)=O)cc1 (stereo not drawn)
    -7.0 | 1.9 | 8.5% | -1.6 | -6.8 | 16.1%
COC(=O)c1ccc(CSc2nc3c(cnn3-c3ccc(Cl)cc3)c(=O)[nH]2)o1
    3.8 | 2.1 | ? | 0.6 | 0.3 | 4.7%
O=C(Cn1ncc(Cl)c(Cl)c1=O)NCC1CCCCC1
    -15.0 | -8.7 | 9.5% | -3.0 | -13.2 | ?
COc1ccc(OC)c(C(=O)c2coc3ccc(OCC(=O)O)cc23)c1
    -2.7 | 2.2 | -2.7% | -2.4 | -6.1 | ?
CC(CCc1ccccc1)NC(=O)c1ccc(-n2cncn2)c([N+](=O)[O-])c1 (stereo not drawn)
    -6.3 | 4.3 | 4.2% | -1.2 | -6.9 | 1.3%[15.4 µM]
Cc1cccc2cc(CN(C(=O)c3cccs3)c3ccccc3)c(=O)[nH]c12
    22.4 | 23.5 | 4.9% | -4.9 | -21.2 | -39.3%[inhibitor]
CCn1cc(Cl)c(C(=O)NNC(=O)CCn2cc([N+](=O)[O-])cn2)n1
    7.5 | 1.1 | 17.1% | 0.1 | -20.7 | -3.0%
N#C/C(=C(/O)CCl)c1nc(-c2ccccc2)cs1
    -1.7 | 3.4 | -20.1% | 5.8 | -0.9 | 13.1%[15.4 µM]
CN(C)/C=C(/C(=O)c1ccc(F)cc1)S(=O)(=O)c1ccc(F)cc1
    4.1 | -0.7 | 0.7% | 0.5 | -3.7 | 10.3%
COc1cccc(NC(=O)CN(C)C(=O)c2cc(S(=O)(=O)N3CCCCCC3)ccc2OC)c1
    -4.2 | -19.1 | -4.8% | -4.8 | -3.5 | ?
CCC(C)NC(=O)Cn1nc([N+](=O)[O-])c(Cl)c1C (stereo not drawn)
    10.8 | -1.0 | 2.4% | -0.9 | 9.0 | 1.5%
O=C(NC1CC1)C1=C[C@@H](c2ccc(C(F)(F)F)cc2)C[C@@H](OCCCCO)O1
    2.4 | 4.5 | 2.0% | -1.4 | -5.8 | -33.2%[inhibitor]
O=C(Nc1cc(F)ccc1F)C1CCCN1S(=O)(=O)c1cccc2nsnc12 (stereo not drawn)
    -0.2 | -12.4 | -10.0% | -4.6 | -15.1 | -17.6%
COc1ccc([N+](=O)[O-])cc1NC(=O)C(C)OC(=O)/C=C/c1ccco1 (stereo not drawn)
    -4.0 | -14.4 | ? | -0.4 | -10.0 | -22.5%
COc1ccc(C(=O)N2CCN(c3ccccc3Cl)CC2)cc1S(=O)(=O)NC1CC1
    -13.8 | / | -8.7% | -2.3 | -12.3 | ?
O=C(NCc1ccccc1)[C@@H]1C[C@H]1[C@@H](NP(=O)(c1ccccc1)c1ccccc1)c1ccccc1
    -0.2 | 0.0 | -20.5% | 0.2 | -72.6 | /
CC(C)(C)c1ccccc1NC(=O)Nc1nc(C(N)c2ccccc2Cl)cs1 (stereo not drawn)
    -17.8 | -14.3 | / | 12.6 | 3.2 | /
Cc1cc(Br)ccc1NC(=O)c1ccccc1-c1ccccc1
    13.2 | -6.7 | -5.9% | -4.0 | 2.9 | -41.9%[inhibitor]

2 records picked at random from the list so far:
Values in the order: Six1-Eya2 inh | CtBP-E1A blk | gsp antag | D2 agonist | D2 PAM | gsp agonist
CN(C)/C=C(/C(=O)c1ccc(F)cc1)S(=O)(=O)c1ccc(F)cc1
    4.1 | -0.7 | 0.7% | 0.5 | -3.7 | 10.3%
Cc1cc(Br)ccc1NC(=O)c1ccccc1-c1ccccc1
    13.2 | -6.7 | -5.9% | -4.0 | 2.9 | -41.9%[inhibitor]

Carrying on.
Values in the order: Six1-Eya2 inh | CtBP-E1A blk | gsp antag | D2 agonist | D2 PAM | gsp agonist
COc1ccc(/C=N/Nc2nc(C)cc(-c3ccccc3)n2)cc1OC
    -1.8 | -3.0 | -12.0% | ? | 24.2 | -47.3%[inhibitor]
CCN(CC)C(=O)c1sc2nc(-c3cccs3)cc(-c3ccc(Cl)cc3)c2c1N
    67.4 | 71.6 | 9.3% | -6.3 | -10.1 | 7.9%[15.4 µM]
O=C(N1CCOCC1)N1CCN(S(=O)(=O)c2ccc(F)cc2)CC1
    6.0 | -3.5 | 7.2% | 0.6 | 1.4 | 3.2%
Cc1ccc(C)c(Nc2cc(C(=O)NCc3cccnc3)c3ccccc3n2)c1
    -1.3 | -0.2 | -2.4% | 6.5 | -4.1 | 7.8%[15.4 µM]
Cc1ccccc1-n1nc2c(c1NC(=O)c1cc3ccccc3oc1=O)CS(=O)(=O)C2
    -0.2 | -2.1 | 12.3% | -1.3 | -2.9 | -85.8%[inhibitor]
COC(=O)c1c(C)[nH]c(C(=O)C(C)Sc2nnc(-c3cc(OC)c(OC)c(OC)c3)o2)c1C (stereo not drawn)
    -0.3 | -1.2 | -11.9% | -1.3 | -9.0 | -48.1%[inhibitor]
O=C(OCC(=O)N1CCN(S(=O)(=O)c2ccc(Cl)cc2)CC1)c1cc(Br)ccc1O
    7.0 | 9.0 | -11.2% | -1.4 | -17.4 | -30.7%[inhibitor]
CCOC(=O)n1c(O)c(N=NC(N)=S)c2cc(C)ccc21
    -11.8 | ? | 4.2% | 0.7 | -7.7 | 2.4%
O=C(CN1CCN(C(=O)c2ccco2)CC1)Nc1ccc2c(c1)OCO2
    4.3 | 10.7 | -3.4% | -3.1 | -0.5 | -33.3%[inhibitor]
O=C(CN1CCC(NC(=O)c2cccc(F)c2)CC1)NCc1cccs1
    -9.7 | -5.6 | -3.2% | -4.7 | -9.8 | 4.6%
COc1ccc(CNC(=O)C(c2ccco2)N(C(=O)Cc2cccs2)c2cccnc2)cc1 (stereo not drawn)
    -2.1 | -15.1 | / | 3.4 | 8.5 | -1.5%[15.4 µM]
CCc1ccc(NC(=O)CSc2n[nH]c(C)c2[N+](=O)[O-])cc1
    3.5 | 3.8 | -4.8% | -2.9 | -18.6 | 5.1%
CCOc1cc(/C=N/NC(=O)CN2CCOCC2)ccc1OCc1ccccc1
    2.7 | 6.0 | -9.4% | -0.3 | -1.1 | -45.0%[inhibitor]
COCC(=O)N1CCC(Oc2ccc(C(=O)N3CCCCC3COC)cc2)CC1 (stereo not drawn)
    4.5 | -7.0 | 7.5% | -2.9 | -10.5 | 1.8%
Cc1ccc([N+](=O)[O-])cc1NC(=S)NCCc1ccccc1
    -5.8 | -18.0 | -5.5% | -1.5 | -22.7 | 8.7%
Cc1ccc(S(=O)(=O)N2CCC(C(=O)OCC(=O)N3CC(C)CC(C)C3)CC2)cc1C (stereo not drawn)
    5.0 | 3.2 | 3.1% | -6.0 | 0.2 | -2.5%[15.4 µM]
CCOC(=O)C1=C(c2ccccc2)Nc2c(c(=O)n(C)c(=O)n2C)C1c1ccc(O)c(OC)c1 (stereo not drawn)
    -1.4 | -7.0 | 6.7% | 0.6 | -6.8 | ?
Cc1cc(CCNC=O)c(C)c2c1sc1ccccc12
    1.0 | 3.0 | 4.2% | 2.0 | -2.6 | 22.3%
COc1ccc(OC)c(C(=O)NC(CC(N)=O)c2ccc(N3CCC(N4CCCCC4)CC3)c([N+](=O)[O-])c2)c1 (stereo not drawn)
    2.5 | -24.4 | 3.9% | -3.1 | -14.4 | 10.8%
Cn1cc(S(=O)(=O)N2CCN(C(=O)c3ccco3)CC2)c(=O)n(C)c1=O
    -1.9 | -3.7 | 6.6% | -5.2 | -2.4 | -44.2%[inhibitor]
C=CCN(CC=C)S(=O)(=O)c1ccc(NC(=S)NC(=O)C2CC2)cc1
    -15.8 | -19.8 | -10.7% | -2.4 | -20.7 | -6.6%
Cc1cccc(N2CCN(S(=O)(=O)c3cc4c(cc3Cl)NC(=O)CO4)CC2)c1C
    24.6 | 0.0 | 4.8% | 1.4 | -2.2 | -12.2%
N=c1c2c3c(sc2ncn1N)CCCCC3
    1.3 | 7.4 | -18.0% | -3.5 | -3.8 | ?
CC(=O)Cc1nsc(NC(=O)c2ccc(-c3cc(Cl)ccc3Cl)o2)n1
    7.0 | 0.0 | -5.5% | 2.3 | 0.5 | -3.7%[15.4 µM]
CN1CCN(S(=O)(=O)c2ccc(NS(=O)(=O)c3ccccc3)cc2)CC1
    0.4 | 5.6 | 4.4% | -1.2 | 13.6 | -17.0%
COc1ccc(CCN(/C=C2\Sc3ccccc3C2=O)C(C)=O)cc1OC
    -5.6 | -21.4 | -14.0% | 1.6 | 7.7 | ?
CCNc1nc(NCC)nc(NS(=O)(=O)c2ccc(N)cc2)n1
    -5.6 | -3.8 | -9.7% | -0.8 | 1.4 | 2.6%[15.4 µM]
Cc1ccc(SC(=O)COc2ccccc2C)cc1
    -6.9 | -3.7 | 5.3% | 1.0 | -2.5 | -33.0%[inhibitor]
O=C(Oc1c(-c2ccccc2Cl)oc2ccccc2c1=O)c1ccc(Cl)cc1
    3.5 | -9.4 | -18.2% | -3.9 | -11.2 | 4.8%
COc1cc(NC(=O)c2ccccc2)c(C)cc1NC(=O)CC(CC(=O)O)c1ccccc1 (stereo not drawn)
    45.3 | -7.5 | 0.5% | -3.3 | -1.6 | ?
CCOC(=O)N1CCC(NC(=O)c2cc3c(=O)n(C)c4ccccc4c3n2C)CC1
    -0.1 | 6.0 | -7.8% | -2.1 | 2.9 | -6.4%
CCCCCCC(=O)N1CCCC(c2nc(-c3cccc(OC)c3)no2)C1 (stereo not drawn)
    25.2 | 23.5 | -16.9% | -0.3 | -5.6 | -21.4%[15.4 µM]
CCOC(=O)c1c(C)n(C)c2cc(Br)c(OC)cc12
    -2.0 | -8.1 | / | 5.0 | -9.1 | -5.6%[15.4 µM]
O=C(COC(=O)c1cc(=O)c2ccccc2o1)NCc1ccc(Cl)cc1
    11.8 | -5.3 | / | -1.9 | -13.6 | ?
O=C(O)CCC(=O)N1N=C(c2ccc(Br)cc2)CC1c1cccs1 (stereo not drawn)
    -0.7 | 6.9 | ? | -0.3 | -1.5 | -5.6%
CCOC(=O)c1sc2c(c1C)c(=O)n(CCO)c(=O)n2Cc1ccccc1
    -12.9 | / | -4.8% | -8.5 | -2.7 | -2.3%
COc1ccc(C(=O)N2CCCCC2)cc1S(=O)(=O)Nc1ccccc1
    1.3 | 8.3 | -14.7% | -2.2 | 3.8 | -3.3%
